FGF22 binding: binders of recombinant human FGF22 by thermal shift | Q9HCT0 | SYPRO orange fluorescence; percent of sucrose octasulfate shift, DMSO zero | calls only at 9.99 µM | 340,000 tested, 1.5% active | AID 651658;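 active means melting point raised past a set limit in the mean and every replicate; three in four hits are not shown here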
Target sequence (Q9HCT0 whole entry, looked up): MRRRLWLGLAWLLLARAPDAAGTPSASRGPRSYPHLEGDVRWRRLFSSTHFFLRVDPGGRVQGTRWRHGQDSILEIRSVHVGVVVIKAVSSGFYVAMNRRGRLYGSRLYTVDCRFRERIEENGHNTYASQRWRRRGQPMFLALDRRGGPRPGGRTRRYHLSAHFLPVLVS
rRNA inh HTS: selective bacterial rRNA inhibition in E. coli; E. coli WT GFP vs humanized-ribosome RFP mutants, fluorescence, 24 h; hits give low values; DMSO median 0, no signal -100; GFP signal change (wild-type ribosome), % (test concentration not listed); 350,000 tested, 1.6% active;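 active means significant combined selectivity score with lowered wild-type GFP, culture density cut under 30%, mutant RFP and density less affected; inactive means any of these conditions unmet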; further: one replicate is shown; some compounds called inactive have numbers as strong as hits
AF4-AF9 inh: MLL-AF4/AF9 protein interaction inhibition; 350,000 tested, 0.47% active; inhibition, % at 10 µM; P42568; AlphaScreen, biotin-AF4 peptide binding to FLAG-AF9;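 active means every replicate reaching a set inhibition limit, whatever the replicate mean, cut at about 25% in these data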;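 further: 0% = plate neutral control median and 100% = total signal loss; the record names both 10 and 1 µM as test concentration; the first replicate is given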
Target sequence (P42568 whole entry, looked up): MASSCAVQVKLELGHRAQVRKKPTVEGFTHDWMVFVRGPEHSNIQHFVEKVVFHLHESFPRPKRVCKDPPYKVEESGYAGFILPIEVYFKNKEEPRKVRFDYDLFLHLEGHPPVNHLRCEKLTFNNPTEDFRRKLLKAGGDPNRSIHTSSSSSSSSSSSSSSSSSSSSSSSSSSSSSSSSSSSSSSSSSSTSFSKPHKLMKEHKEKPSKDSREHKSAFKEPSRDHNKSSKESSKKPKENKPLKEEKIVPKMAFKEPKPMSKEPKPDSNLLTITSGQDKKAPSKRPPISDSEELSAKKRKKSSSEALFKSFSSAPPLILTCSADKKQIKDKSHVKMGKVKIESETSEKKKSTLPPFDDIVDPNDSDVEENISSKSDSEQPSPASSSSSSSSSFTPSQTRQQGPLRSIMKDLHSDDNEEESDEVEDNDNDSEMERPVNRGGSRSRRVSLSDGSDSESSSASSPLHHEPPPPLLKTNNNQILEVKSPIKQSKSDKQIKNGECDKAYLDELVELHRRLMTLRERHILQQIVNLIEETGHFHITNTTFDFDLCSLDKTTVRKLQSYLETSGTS
rRNA inh HTS OD600: also measured in rRNA inh HTS; calls as there; OD600 change, %; measured here: OD600 growth;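 optical density of the mix in the first replicate; 0 = DMSO median and -100 = no signal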
rRNA inh HTS RFP: recorded beside rRNA inh HTS, whose call it bears; RFP signal change, %; measured here: RFP humanized mutant strains;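 first replicate; 0 = DMSO median and -100 = no signal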
Active calls of the source: *; i = inactive; + = active, no number; & = joins results of further samples. Some of the compounds tested. The share of hits here may be higher or lower than overall.

FGF22 binding | rRNA inh HTS | rRNA inh HTS OD600 | rRNA inh HTS RFP | AF4-AF9 inh | SMILES
i | -6 | -10 | -0.3 | 3.7 | CN1C(=O)c2cc(NC(=O)Nc3cccc(Cl)c3)ccc2OC[C@H]2O[C@H](CC(=O)NCCc3ccncc3)CC[C@@H]21
i | 11 | 16 | -2.2 | 0.8 | COc1ccc(CC(O)CO)cc1OCc1ccccc1 (stereo not given)
i | 2 | -7 | -1.9 | -4.4 | CO[C@@H]1CN(C)C(=O)c2ccc(NS(=O)(=O)c3ccccc3)cc2OC[C@@H](C)NC[C@@H]1C
i | -15 | 3 | 34 | 8.2 | O=[N+]([O-])c1ccc(Nc2ccccc2O)c([N+](=O)[O-])c1
i | -1 | 0 | 0.7 | -1.6 | C[C@@H]1CN([C@H](C)CO)C(=O)Cc2cc(NC(=O)Cc3ccccc3)ccc2O[C@H]1CN(C)S(=O)(=O)c1ccccc1
i | -4 | -10 | 0.4 | 3.7 | C[C@H]1CN([C@@H](C)CO)S(=O)(=O)c2ccc(C3=CCCCC3)cc2O[C@@H]1CN(C)S(C)(=O)=O
i | 1 | -3 | -1.2 | -1.9 | CO[C@@H]1CN(C)C(=O)c2ccc(NC(C)=O)cc2OC[C@@H](C)N(C(=O)c2ccccc2)C[C@@H]1C
i | -1 | -4 | 2.5 | 1.1 | C[C@H]1CN([C@@H](C)CO)C(=O)c2cccc(NS(C)(=O)=O)c2O[C@@H]1CN(C)Cc1ccc(Oc2ccccc2)cc1
i | -6 | -15 | 7.5 | 4.8 | C[C@@H]1CN([C@H](C)CO)C(=O)c2cc(NC(=O)Nc3ccc(F)cc3)ccc2O[C@@H]1CN(C)Cc1ccc(Oc2ccccc2)cc1
i | 14 | 22 | 17 | -2.4 | O=C(NCc1cccnc1)c1csc([C@H]2C[C@H](O)[C@@H](CO)O2)n1
i | -3 | 1 | -3.4 | -2.2 | COCC#Cc1ccc([C@@H]2[C@@H](C#N)N(C(=O)NC3CCCC3)[C@@H]2CO)cc1
i | 3 | 2 | -0.4 | 1.1 | CCS(=O)(=O)Nc1ccc2c(c1)C(=O)N(C)[C@H]1CC[C@@H](CC(=O)NCCOC)O[C@H]1CO2
i | 2 | -11 | 1.0 | 1.5 | C/C=C/c1ccc([C@H]2[C@@H](CO)N(C(=O)c3cnccn3)C23CN(C(=O)C2CCC2)C3)cc1
i | 4&0 | 15&-1 | 1.7&0.3 | -6.7&-5.9&-1.0 | C[C@H](CO)N1C[C@H](C)[C@@H](CN(C)C(=O)c2ccncc2)OCc2cnnn2CCCC1=O
i | -3 | -25 | -0.9 | -0.4 | C[C@H](CO)N1C[C@H](C)[C@@H](CN(C)S(C)(=O)=O)Oc2cc(C#Cc3ccc(F)cc3)ccc2S1(=O)=O
i | -2 | -47 | -7.8 | 2.4 | CCCNC(=O)N1[C@H](C#N)[C@H](c2ccccc2C2=CCCC2)[C@@H]1CO
i | 4 | 11 | -3.8 | 5.5 | C[C@H](CO)N1C[C@H](C)[C@@H](CN(C)Cc2ccc(C(=O)O)cc2)Oc2c(NC(=O)C3CCOCC3)cccc2C1=O
i | 3 | 1 | -0.4 | -1.2 | C[C@@H]1CN([C@H](C)CO)C(=O)c2cc(NS(=O)(=O)c3ccc(Cl)cc3)ccc2O[C@@H](C)CCCCO[C@@H]1CN(C)C(=O)NC1CCCCC1
i | 0 | -5 | -1.9 | 0.3 | CN1C(=O)c2cc(NC(=O)C3CC3)ccc2OC[C@@H]2O[C@@H](CC(=O)NCC3CCCCC3)CC[C@H]21
i | 3 | 8 | -3.6 | -1.8 | C[C@H](CO)N1C[C@H](C)[C@H](CN(C)CC2CCOCC2)Oc2ncc(C3=CCCCC3)cc2C1=O
i | -4 | -2 | -0.7 | -5.1 | CO[C@H](C(=O)N(C)C[C@H]1OCc2ccccc2-c2c(n(C)c3ccccc23)C(=O)N([C@@H](C)CO)C[C@@H]1C)c1ccccc1
i | 3 | 4 | -1.7 | 2.8 | COc1ccc(-c2cn(CC[C@H]3CC[C@H](NC(=O)Cc4ccccn4)[C@@H](CO)O3)nn2)cc1
i | 9 | 12 | 0.5 | 2.4 | CC(C)NC(=O)N(C)C[C@@H]1OCCCC[C@H](C)Oc2ccc(NS(=O)(=O)c3cn(C)cn3)cc2C(=O)N([C@H](C)CO)C[C@@H]1C
i | -21 | -17 | -9.9 | -21 | Nc1ccc2c(c1)C(O)c1ccc(Cl)cc1-2 (stereo not given)
i | 3 | 8 | 0.4 | -0.9 | C[C@@H]1CN([C@H](C)CO)C(=O)c2cc(NC(=O)Cn3cnnn3)ccc2O[C@@H]1CN(C)C(=O)Nc1cccc2ccccc12
i | 1 | -1 | -0.5 | -1.8 | C[C@@H]1CCCCO[C@@H](CN(C)C(=O)Cc2ccccc2)[C@H](C)CN([C@@H](C)CO)C(=O)c2cc(NC(=O)Nc3cccc4ccccc34)ccc2O1
i | 3 | 3 | -4.1 | 1.7 | C[C@@H](O)C#Cc1ccc([C@@H]2[C@H](CO)N3CCCCN(C(=O)c4cccc(F)c4)C[C@@H]23)cc1
i | 3 | 11 | 0.6 | -0.5 | CCCC(=O)N1CCC2(CC1)CN[C@H](CO)c1[nH]c3cc(OC)ccc3c12
i | 5 | 3 | 1.2 | 0.0 | O=S1(=O)N[C@@H](Cc2ccccc2)COc2cc(N3CC[C@H](O)C3)ccc21
i | -1 | -1 | 2.4 | 7.3 | O=C(Nc1cccc(C(=O)NC2CC2)c1)c1ccc(F)c(S(=O)(=O)N2CCOCC2)c1
i | 1 | -1 | -0.5 | -1.6 | O=C(C[C@@H]1C[C@H]2c3cc(NC(=O)C4CCOCC4)ccc3O[C@H]2[C@H](CO)O1)NCc1ccccc1F
i | 1 | -9 | -6.5 | 1.7 | CCOC(=O)C1=CN(Cc2ccco2)S(=O)(=O)N(C)C1c1ccccc1 (stereo not given)
i | 2 | 8 | -3.4 | -0.8 | CN(C)C(=O)C[C@@H]1C[C@@H]2c3cc(NC(=O)NC4CCCCC4)ccc3O[C@@H]2[C@H](CO)O1
i | 0 | -7 | -0.2 | 1.7 | COc1ccccc1-c1ccc2c(c1)O[C@H](CN(C)C(=O)c1ccncc1)[C@H](C)CN([C@@H](C)CO)S2(=O)=O
i | -1 | 6 | -2.1 | -2.2 | O=C(N[C@H]1CC[C@H](CCNS(=O)(=O)c2ccc(F)cc2)O[C@@H]1CO)c1cnccn1
i | 1 | 2 | -0.7 | -2.3 | CCN(C[C@@H]1N[C@H](CO)[C@H]1c1ccccc1)C(=O)c1ccncc1
i | 2 | 4 | -1.5 | -17 | COCC(=O)N1[C@H](C(=O)N2CCOCC2)[C@@H](CO)[C@@H]2Cn3c(ccc(C4=CCCCC4)c3=O)[C@@H]21
i | -4 | -19 | 1.0 | 2.8 | c1ccc(CNCCCn2cnc3c(OCc4ccccc4)ncnc32)cc1
i | 0 | -2 | 0.1 | 7.6 | COc1ccc2c3c([nH]c2c1)[C@H](CO)N(S(C)(=O)=O)CC31CCN(Cc2nccs2)CC1
i | -4 | 0 | 2.1 | 6.0 | N#Cc1cccc(NC(=O)CNc2cc(S(=O)(=O)N3CCOCC3)ccc2N2CCCC2)c1
i | -4 | -5 | 0.0 | 1.9 | Cc1ccc(-c2cnc3c(c2)C(=O)N([C@@H](C)CO)C[C@H](C)[C@@H](CN(C)C(=O)c2ccccc2)O3)cc1
i | -27 | -30 | -5.8 | -2.0 | O=C(NCCCc1ccccc1)c1cccc(NC(=O)C2CCCCC2)c1
i | -29 | -39 | 11 | 0.6 | COCCNc1nc(NCc2cccc(OC)c2)c2sc(-c3ccccc3)cc2n1
i | -10 | -9 | 2.3 | 0.8 | COc1ccc(-c2nn(-c3ccccc3)cc2/C=N/Nc2cccc(C(=O)O)c2)cc1
i | -5 | -11 | 1.5 | 2.3 | COCC(=O)Nc1ccc2c(c1)OC[C@H](C)N(CCc1ccccc1)C[C@@H](C)[C@H](OC)CN(C)C2=O
i | 0 | 0 | -0.4 | -2.2 | Cc1cc(C(=O)Nc2cccc3c2O[C@@H](CN(C)C(=O)Nc2ccc(F)cc2)[C@@H](C)CN([C@@H](C)CO)C3=O)n(C)n1
i | 0 | 5 | 3.0 | -0.9 | O=[N+]([O-])c1ccc(N2CCOCC2)c([N+](=O)[O-])c1
i | 1 | -3 | -2.5 | 4.4 | COCC(=O)N1C[C@H](C)[C@@H](OC)CN(C)C(=O)c2cc(NC(=O)Nc3ccccc3)ccc2OC[C@@H]1C
i | 3 | 9 | -1.5 | -2.4 | O=C(NC1CCCC1)[C@H]1[C@H](CO)[C@H]2Cn3c(cccc3=O)[C@@H]1N2C(=O)CC1CC1
i | 1 | 3 | -0.7 | 0.1 | C[C@H](CO)N1C[C@H](C)[C@H](CN(C)C)OCCCC[C@H](C)Oc2ccc(NS(=O)(=O)c3cccs3)cc2C1=O

Next part:
FGF22 binding | rRNA inh HTS | rRNA inh HTS OD600 | rRNA inh HTS RFP | AF4-AF9 inh | SMILES
i | 4 | 15 | 0.8 | -2.6 | C[C@H](O)C#Cc1cnc2c(c1)C(=O)N([C@@H](C)CO)C[C@@H](C)[C@H](CN(C)CC1CCOCC1)O2
i | -24 | -23 | 0.8 | 11 | CN(C)Cc1ncccc1Oc1nc2cc(-c3cccc(Cl)c3)sc2c(=O)n1C
+ | -5 | -8 | 8.8 | 4.2 | Cc1noc(C)c1S(=O)(=O)Nc1ccc2c(c1)CC(=O)N([C@@H](C)CO)C[C@@H](C)[C@@H](CN(C)Cc1ccc(Cl)c(Cl)c1)O2
i | -1 | -4 | -2.7 | 0.7 | COc1ccc(NC(=O)Nc2ccc3c(c2)C(=O)N([C@@H](C)CO)C[C@H](C)[C@@H](CN(C)CC2CCCCC2)O3)cc1
i | -4 | -12 | -5.5 | 0.4 | CCCCNS(=O)(=O)c1ccc(Br)cc1N1CCC[C@H]1CO
i | 1 | 2 | -1.8 | -0.7 | COc1ccc(NC(=O)N(C)C[C@H]2OCCCC[C@H](C)Oc3ccc(NC(=O)Nc4ccc(F)cc4)cc3C(=O)N([C@@H](C)CO)C[C@H]2C)cc1
i | 1 | -10 | 5.2 | -0.5 | O=C(CN1CCOCC1)N1CCCCN2[C@@H](CO)[C@H](c3ccc(C#Cc4ccccc4)cc3)[C@@H]2C1
i | 1 | -1 | -2.4 | 2.0 | CO[C@@H]1CN(C)C(=O)c2cc(NC(C)=O)ccc2OC[C@@H](C)N(C(=O)C2CCOCC2)C[C@@H]1C
i | -1 | 0 | 3.5 | 4.0 | C[C@@H]1CCCCO[C@@H](CN(C)S(C)(=O)=O)[C@H](C)CN([C@H](C)CO)C(=O)c2cc(NC(=O)Nc3cccc4ccccc34)ccc2O1
i | 3 | -1 | 2.8 | -1.1 | C[C@H]1CN([C@@H](C)CO)C(=O)c2cc(Br)cnc2O[C@H]1CN(C)C(=O)Nc1ccccc1
i | -5 | -15 | 4.5 | 1.5 | Cc1noc(C)c1S(=O)(=O)Nc1ccc2c(c1)C(=O)N([C@@H](C)CO)C[C@H](C)[C@@H](CN(C)Cc1ccc(C(F)(F)F)cc1)O2
i | -1 | -5 | -0.1 | -2.0 | CO[C@@H]1CN(C)C(=O)c2cc(NC(=O)c3cccc(F)c3)ccc2OC[C@H](C)N(CC2CC2)C[C@H]1C
i | -4 | 0 | -6.1 | -0.6 | Cn1c(SCC(=O)NC2CCCCC2)nc2c(c1=O)SCC2
i | -6 | -6 | 0.7 | -15 | O=C(Nc1ccc(S(=O)(=O)N2CCOCC2)cc1)C1CCN(S(=O)(=O)c2ccc(Cl)cc2)CC1
i | -4 | -22 | 9.7 | -0.4 | CCNC(=O)c1cc2c(c(-c3cccc(-c4ccccc4F)c3)n1)[C@H](CCO)N(C(=O)CC)C2
i | -6 | -7 | 1.6 | 17 | O=C(NCC[C@H]1CC[C@H](NS(=O)(=O)c2ccc(F)cc2)[C@@H](CO)O1)Nc1ccc(F)cc1
i | 5 | 4 | 0.8 | -0.8 | O=C(C[C@@H]1C=C[C@@H](NC(=O)C2CCC2)[C@@H](CO)O1)NCCCN1CCOCC1
i | 7 | 5 | 0.9 | -9.1 | COc1cc(C2C3=C(COC3=O)Oc3cc4c(cc32)OCO4)ccc1OC(C)=O (stereo not given)
i | -4 | -13 | 1.5 | 1.8 | COc1cccc(S(=O)(=O)N[C@H]2CC[C@H](CCn3cc(-c4ccc(F)cc4)nn3)O[C@@H]2CO)c1
i | 17 | 15 | 2.2 | -0.7 | CCC(c1nnnn1-c1c(C)cccc1C)N1CCN(CCN2CCOCC2)CC1 (stereo not given)

Five consecutive records from above, for reference:
FGF22 binding | rRNA inh HTS | rRNA inh HTS OD600 | rRNA inh HTS RFP | AF4-AF9 inh | SMILES
i | 4 | 15 | 0.8 | -2.6 | C[C@H](O)C#Cc1cnc2c(c1)C(=O)N([C@@H](C)CO)C[C@@H](C)[C@H](CN(C)CC1CCOCC1)O2
i | -24 | -23 | 0.8 | 11 | CN(C)Cc1ncccc1Oc1nc2cc(-c3cccc(Cl)c3)sc2c(=O)n1C
+ | -5 | -8 | 8.8 | 4.2 | Cc1noc(C)c1S(=O)(=O)Nc1ccc2c(c1)CC(=O)N([C@@H](C)CO)C[C@@H](C)[C@@H](CN(C)Cc1ccc(Cl)c(Cl)c1)O2
i | -1 | -4 | -2.7 | 0.7 | COc1ccc(NC(=O)Nc2ccc3c(c2)C(=O)N([C@@H](C)CO)C[C@H](C)[C@@H](CN(C)CC2CCCCC2)O3)cc1
i | -4 | -12 | -5.5 | 0.4 | CCCCNS(=O)(=O)c1ccc(Br)cc1N1CCC[C@H]1CO

From PubChem BioAssay
